Assay outcomes (PubChem BioAssay)
Vaccinia mCherry: vaccinia inhibition (mCherry reporter); Vaccinia virus mCherry reporter infection, fluorescence; about a quarter of the inactives have no number; Potency, µM (doses to about 36.5 µM), inactives show at the top dose activity change, negative = inhibition, actives largely listed as inhibitors; 310,000 tested, 0.63% active; AID 720579; active = well fitted inhibition curve with a large enough effect; inconclusive = small, poorly fitted or top-dose-only effect; inactive = no such curve, though single readings can be large or run the other way; tested in A549 cells; note: nearly all actives have a fitted effect of over 35% in size; inactives centre near -10
VACV Venus inh: inhibitors of vaccinia virus (Venus reporter); Vaccinia virus Venus reporter expression, fluorescence; Potency, µM (series often up to 36.5 µM), inactives show at the top dose activity change, negative = inhibition, actives largely listed as inhibitors; 330,000 tested, 0.46% active; AID 720580; active means well fitted inhibition curve with a large enough effect; inconclusive means small, poorly fitted or top-dose-only effect; inactive means no such curve, though single readings can be large or run the other way; tested in A549 cells; note: nearly all actives have a fitted effect of over 30% in size; inactives centre near -10
Starred values were filed as active, the others as inactive; i = inactive; ? = inconclusive; . = no result given; [ ] = dose if it differs, or a comment. % is set by controls: 0 for no effect and ±100 for the full control effect; potency is the fitted concentration of half-maximal effect.

| compound | Vaccinia mCherry | VACV Venus inh |
| --- | --- | --- |
| COc1ccc(C(=O)N2CCC(c3ccncc3)CC2)cc1OC | -13% | -10% |
| O=C1CC(C(=O)N2CCN(c3ccccc3O)CC2)CN1Cc1ccccc1 (stereo not given) | i | -6% |
| O=C(Nc1ccnn1C1CCN(Cc2ccn[nH]2)CC1)c1ccccc1 | i | -6% |
| CCCn1cc(S(=O)(=O)c2ccc(C)c(C)c2)c(=O)c2cc(F)c(N3CCCCC3)cc21 | 5% | -2% |
| Cc1cc(C)c2cc(C(=O)N3CCC(N4CCCCC4)CC3)[nH]c2c1 | -6% | -5% |
| COc1ccccc1CCC(=O)Nc1ccc(S(=O)(=O)Nc2ncccn2)cc1 | -7% | -6% |
| Cc1cc([N+](=O)[O-])ccc1N | -14% | -14% |
| Cc1ccc(NC(=O)COC(=O)Cc2cccs2)c(Br)c1 | -9% | -19% |
| O=C(Nc1ccccc1)O/N=C/c1ccccc1Cl | i | -8% |
| COc1ccc(CCNC(=O)c2cc3c(-c4ccccc4F)nn(C)c3s2)c(OC)c1 | -30% | -23% |

Quoted from the listing:
For VACV Venus inh, COc1ccc(C(=O)N2CCC(c3ccncc3)CC2)cc1OC reads -10%
For VACV Venus inh, CCCn1cc(S(=O)(=O)c2ccc(C)c(C)c2)c(=O)c2cc(F)c(N3CCCCC3)cc21 reads -2%

The list goes on:
| compound | Vaccinia mCherry | VACV Venus inh |
| --- | --- | --- |
| CCOC(=O)c1c(NC(C)=O)sc2c1CCC(C=NCCCN(CC)CC)=C2Sc1ccccc1 | ? | -20% |
| CC(=O)Nc1cccc(-c2csc(C(C)(NC(C)=O)c3ccccc3)n2)c1 (stereo not given) | -14% | -12% |
| Cc1c(S(=O)(=O)N2CCN(c3ccc(F)cc3)CC2)c(=O)n(C)c(=O)n1C | i | -14% |
| CN(C(=O)c1ccc(NC(=O)Cc2cccc(NC(=O)C3CCN(C(=O)C4CCC4)CC3)c2)cc1)C1CCCC1 | -3% | -9% |
| COCCCNC(=O)CCc1nc(-c2ccccc2Cl)no1 | -13% | -8% |
| Cn1c(=O)c2c(nc(NCc3cccnc3)n2Cc2ccc(Cl)cc2)n(C)c1=O | . | -23% |
| CCN(c1ccccc1)c1ncnc2c1cnn2-c1ccc(OC)cc1 | 3% | -10% |
| Cc1nn(Cc2noc(C(=O)NC(C)c3ccccc3)n2)c(C)c1Br (stereo not given) | -20% | -13% |
| N/C(=N\NC(=O)Nc1ccc(Cl)cc1)c1ccccn1 | -8% | -9% |
| NNC(=O)CCCCCCCCCCOCCCCO | -24% | 6% |
| COC(=O)c1ccccc1NC(=O)CSc1nnc(C(CO)NC(=O)c2ccccc2)n1C (stereo not given) | -14% | -18% |
| O=C(NCc1ccon1)C1CCC(=O)N(CCc2ccc(Cl)cc2)C1 (stereo not given) | -17% | -21% |
| CN(Cc1ccc(F)cc1)C(=O)COc1ccccc1-c1ccccc1 | -21% | -19% |
| O=C(NCCCN1CCOCC1)c1sc2cc(F)ccc2c1Cl | i | -8% |
| Cc1ccc(C(C)C)c(OCc2nn(CC(=O)c3ccc(Cl)cc3)c3[n+]2CCCCC3)c1 | -13% | ? |
| COc1cccc(C(=O)Nc2cc(C)ccc2NC(=O)COc2ccccc2)c1 | -12% | -4% |
| CCCN(CC(=O)Nc1ccc(Cl)cc1Cl)C(=O)CC(NC(C)=O)c1ccccc1 (stereo not given) | i | -13% |
| CC(=O)N1CCCc2cc(S(=O)(=O)NCc3ccc(C)cc3)ccc21 | -1% | -29% |
| COc1ccc(CNc2nc(-c3cccnc3)nn2C(=O)c2ccco2)cc1 | . | -10% |
| CCCCOc1ccc(C(=O)N(Cc2nc(-c3ccc(Cl)cc3)no2)C(C)C)cc1 | -7% | -14% |

3 of these compounds in another layout:
> COC(=O)c1ccccc1NC(=O)CSc1nnc(C(CO)NC(=O)c2ccccc2)n1C (stereo not given)
  Vaccinia mCherry = -14% | VACV Venus inh = -18%
> Cc1ccc(C(C)C)c(OCc2nn(CC(=O)c3ccc(Cl)cc3)c3[n+]2CCCCC3)c1
  Vaccinia mCherry = -13% | VACV Venus inh = ?
> O=C(NCc1ccon1)C1CCC(=O)N(CCc2ccc(Cl)cc2)C1 (stereo not given)
  Vaccinia mCherry = -17% | VACV Venus inh = -21%

Continued:
| compound | Vaccinia mCherry | VACV Venus inh |
| --- | --- | --- |
| CC(=O)OC1(c2ccccc2)CCN(C2CCCCC2)CC1C (stereo not given) | 6% | 2% |
| CCOc1ccc(NC(=O)Cn2cnc3sc(C)c(S(=O)(=O)N4CCN(c5ccccc5OC)CC4)c3c2=O)cc1 | 18% | -3% |
| O=C(N/N=C/C1CCCCC1)c1ccccn1 | -24% | -13% |
| CCCOc1ccc(CNC(=O)c2cc3oc4ccccc4c3n2C)cc1 | -16% | 9% |
| Cc1ccc2c(c1)nnc1nnc(SCC(=O)O)n12 | ? | 14% |
| CCOC(=O)c1cn2nc(Oc3ccc(C#N)cc3)ccc2n1 | -3% | -14% |
| COc1cc(/C=N/N2C(=O)C3C4C=CC(CC4)C3C2=O)ccc1O (stereo not given) | -7% | -12% |
| COc1cc2c(cc1NC(=O)COc1ccc(Br)cc1)oc1ccccc12 | -6% | -14% |
| O=C(Cc1ccccc1F)Nc1cccc(S(=O)(=O)N2CCOCC2)c1 | i | -24% |
| COc1ccc(CCNC(=O)c2nn(-c3ccc(C)cc3)c(=O)c3c2c2ccccc2n3C)cc1OC | 2% | 4% |
| CC(C)NC(=S)NC1(C)CCS(=O)(=O)C1 (stereo not given) | i | -18% |
| COc1ccc(OC)c(-c2cc(Cl)c3c(c2)CC(CNC(=O)c2cnn4cccnc24)O3)c1 (stereo not given) | -8% | 2% |
| O=C(N/C(=C\c1ccc(Cl)cc1)C(=O)N1CCOCC1)c1ccc([N+](=O)[O-])cc1 | 2% | 1% |
| O=C(COC(=O)Cc1c[nH]c2ccccc12)Nc1ccc(Cl)cc1 | -17% | 3% |
| Cc1nc2nc(SCC(=O)NCCc3ccccc3)nn2c(C)c1Cc1c(F)cccc1Cl | 6% | -2% |
| C=CCOc1cccc(C2C(C(=O)c3cccs3)=C(O)C(=O)N2Cc2cccnc2)c1 (stereo not given) | i | -5% |
| CC(NC(=O)Nc1ccc(Cl)cc1)C(c1cccs1)N1CCOCC1 (stereo not given) | 27% | 1% |
| COC(=O)c1cccc(NC(=O)CCN2C(=O)C3CC=CCC3C2=O)c1 (stereo not given) | -1% | -15% |
| Cn1c(N)c(C(=O)CSc2nnc(-c3ccccc3F)n2C2CC2)c(=O)n(C)c1=O | -6% | 3% |
| CC(=O)c1cnc2ncnn2c1C | -7% | -6% |
| Cc1ccc(NC(=O)CSc2nnc(CNC(=O)C34CC5CC(CC(C5)C3)C4)n2-c2ccc(F)cc2)cc1 | -19% | ? |
| COP(=O)(OC)C(Nc1ccc([N+](=O)[O-])cc1)c1ccccc1 (stereo not given) | -16% | -11% |
| CCNC(=O)C1(C)CCN(C(=O)CCc2ccccc2)C1 (stereo not given) | 9% | -5% |
| COc1ccc(C(=O)O)cc1NS(=O)(=O)c1cccc2nsnc12 | . | 1% |
| Cc1cccc(N2CCN(C(=O)CCn3c(=O)c4cccn4c4cccnc43)CC2)c1C | -7% | -16% |
| Cc1[nH]c2ccccc2c1C1=CC(=O)C=CC1=O | -4% | -25% |
| COc1cccc(C(O)c2nc(-c3cc(F)cc(F)c3)cs2)c1 (stereo not given) | -13% | -8% |
| Cc1cc(C(=O)NC2CC(C)(C)Cc3c2cnn3-c2cccc(F)c2)n(C)n1 (stereo not given) | -5% | -11% |
| COc1ccccc1N1CCN(C(=O)C(C)N(c2ccc(C)cc2)S(C)(=O)=O)CC1 (stereo not given) | . | -19% |
| O=C(COc1ccccc1Br)Nc1ccccc1C(F)(F)F | i | -18% |
| c1cncc(Cc2cc3ccccc3[nH]2)c1 | -14% | 2% |
| CC1(C(=O)NCc2ccccc2)CCC(=O)N1CCc1c[nH]c2ccccc12 (stereo not given) | 13% | -5% |
| COc1ccc(/C=C(/NC(=O)c2ccc([N+](=O)[O-])cc2)C(=O)NCCCN(C)C)cc1 | i | -2% |
| CCOC(=O)c1cc(S(=O)(=O)Nc2ccc(OC)c(Cl)c2)[nH]n1 | 0% | -8% |
| Cc1nc2c(c(=O)n1CCC(C)C)c1nc3ccccc3nc1n2Cc1ccc2c(c1)OCO2 | . | -8% |
| CC(NC(=O)C1CC1)c1nnc2n1CCN(Cc1cccc(F)c1F)CC2 (stereo not given) | -16% | -13% |
| O=c1c2sc3ccccc3c2n(Cc2ccc(Cl)cc2)c(=O)n1Cc1ccco1 | -9% | -8% |
| C/C=C/Cn1c(SCCCc2ccccc2)nc2c1c(=O)[nH]c(=O)n2C | -27% | ? |
| COc1cccc(C=NNc2nc3ccccc3s2)c1OC | ? | 5% |
| C#C[C@]1(O)CCC2C3CCC4=CC(=O)CC[C@@H]4C3CC[C@@]21C (stereo not given in full) | -3% | -16% |
| CCOc1c(Br)cc(/C=C2/SC(=O)N(CC(=O)N3CCCC3)C2=O)cc1OC | -1% | 9% |
| O=C(CCSc1ccccc1)NCc1cccnc1 | i | -7% |
| O=C(CN1CCCN(Cc2ccc(F)cc2)S1(=O)=O)NC1CCCC1 | i[7.34 µM] | -9%[7.34 µM] |
| COc1ccccc1-n1c(C)nc(=O)c(-c2ccccc2)c1C | -20% | -19% |
| Cn1c(N)c(C(=O)CSc2nn(-c3ccccc3)c(=S)s2)c(=O)n(C)c1=O | ? | -8% |
| Cc1cccc(N2CN(Cc3cccnc3)CNC2=S)c1C | i | -7% |
| COc1ccc2cc(C3CC=C(CO)CN3S(=O)(=O)c3ccccc3[N+](=O)[O-])n(C(=O)OC(C)(C)C)c2c1 (stereo not given) | ? | -27% |
| CCCCC(=O)N/N=C/c1c(O)n(Cc2ccco2)c(=O)[nH]c1=O | -9% | 4% |
| O=c1ccc2cc(O[C@@H]3O[C@H](CO)[C@@H](O)[C@H](O)[C@H]3O)c(O)cc2o1 | i | -20% |
| C=CCn1c(-c2sc3nc(C)cc(C)c3c2N)n[nH]c1=S | i | -23% |

Other structures:
| compound | Vaccinia mCherry | VACV Venus inh |
| --- | --- | --- |
| O=C(O)c1ccc(-n2c(-c3cc(-c4ccco4)[nH]n3)n[nH]c2=S)cc1 | -22% | -16% |
| OCC1(CC2CCCCO2)CCN(C/C=C/c2ccccc2)CC1 (stereo not given) | -16% | -14% |
| O=C(NC1CCN(CC(=O)N(c2ccccc2)c2ccccc2)CC1)c1ccc([N+](=O)[O-])cc1 | -10% | -13% |
| Cc1cccc(OCC(=O)Nc2ccc(C(=O)NCC(C)C)cc2)c1 | -8% | -2% |
| COc1ccc(Br)c(C(=O)N(C)CC(=O)Nc2ccc(N3CCOCC3)cc2)c1 | i | -15% |
| CC1CC(C)CN(CCCNC(=O)c2ccc3nc(N4CCCCC4)sc3c2)C1 (stereo not given) | 15% | -12% |
| COc1ccc(S(=O)(=O)N2CCCCCC2)cc1C(=O)N1CCN(c2ccccc2O)CC1 | -24% | -21% |
| CC(=O)c1ccc(C(=O)N2CCCC(c3nc(SCc4ccccn4)ncc3C)C2)cc1 (stereo not given) | -29% | -20% |
| Cc1ccc(NC(=O)c2ccccc2[N+](=O)[O-])nc1 | -7% | -20% |
| COc1ccc(CNC(=O)c2cc3c(=O)n(Cc4cccnc4)ccc3nc2C)cc1 | -5% | -8% |

One compound at a time, from the list above. Values in the order: Vaccinia mCherry, VACV Venus inh
Entry for Cc1cccc(OCC(=O)Nc2ccc(C(=O)NCC(C)C)cc2)c1 → -8%, -2%
Entry for O=C(NC1CCN(CC(=O)N(c2ccccc2)c2ccccc2)CC1)c1ccc([N+](=O)[O-])cc1 → -10%, -13%
Entry for CC1CC(C)CN(CCCNC(=O)c2ccc3nc(N4CCCCC4)sc3c2)C1 (stereo not given) → 15%, -12%
Entry for Cc1ccc(NC(=O)c2ccccc2[N+](=O)[O-])nc1 → -7%, -20%
Entry for O=C(O)c1ccc(-n2c(-c3cc(-c4ccco4)[nH]n3)n[nH]c2=S)cc1 → -22%, -16%

(next part)
| compound | Vaccinia mCherry | VACV Venus inh |
| --- | --- | --- |
| CN(Cc1ccccc1)c1oc(-c2ccco2)nc1C#N | . | -13% |
| COc1cccc(C(=O)NCCc2csc(-c3cccc(F)c3)n2)c1OC | -9% | 5% |
| c1ccc(-n2ncc3c(NCc4ccco4)ncnc32)cc1 | ? | ? |
| CCOC(=O)C1CCCN(C(=O)CS(=O)(=O)Cc2ccccc2)C1 (stereo not given) | -15% | -5% |
| O=C(CSc1nnc(-c2cccnc2)n1Cc1ccco1)c1ccccc1 | -14% | -9% |
| Cc1ccc(Nc2ncnc3c2nc2n3CCCC2)cc1F | -19% | ? |
| Cc1c(C)c2ccc(OCC(=O)N[C@@H](Cc3c[nH]c4ccccc34)C(=O)O)cc2oc1=O | 1% | 8% |
| CCn1c(SCc2nc3ccccc3[nH]2)nnc1-c1ccncc1 | i | -2% |
| COCCCNC(=S)N1CCC(C(=O)c2ccc(Cl)cc2)CC1 | -18% | ? |
| CCn1c(=O)c2sccc2n2c(CCCC(=O)N3CCN(c4cc(C)ccc4C)CC3)nnc12 | -20% | -12% |
| CC(=O)c1sc(NC(=O)c2ccccc2C)nc1C | -2% | 5% |
| CC(C)(Oc1ccc(Cl)cc1)C(=O)NCc1ccc(S(N)(=O)=O)cc1 | i | -11% |
| COc1ccc(COC(=O)c2ccc(C)c(S(=O)(=O)N3CCOCC3)c2)cc1F | -25% | -13% |
| CCCc1nc2ccc(C(=O)OC)cn2c1Cc1cccc(F)c1 | i | -2% |
